Screens deposited in PubChem by several laboratories.
HIV Env fusion – inhibitors of HIV-1 Env-driven cell-cell fusion, primary screen, HeLa-JRFL effector, CEM21 target cells, luciferase; inhibition, % at 12.3 µM; 360,000 compounds, 1.1% hits;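 active = mean replicate inhibition score of at least 50 and every replicate individually at or above 50; inconclusive = only one of the two criteria met; inactive = mean below 50 and not all replicates reaching 50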;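 also: 0% = plate neutral controls and 100% = maraviroc near 300 nM; one replicate is shown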
UUG fidelity – modulators of yeast start codon fidelity, primary screen, whole organism, S. cerevisiae, single point, plate reader; activity score, % at 18.7 µM; AID 602363, 2012; S. cerevisiae UUG-firefly luciferase reporter, luminescence/redox ratio; 350,000 compounds, 0.13% hits;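 active = replicate mean at a twofold rise or more, about +100% in these data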;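 also: firefly luciferase made from a UUG start codon reports start codon fidelity; reporter light over untreated wells divided by growth signal over untreated wells; some hits fall short of that in this replicate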
eIF4H inh – human eIF4H binding inhibitors, primary screen, translation initiation inhibitor project, biochemical, uHTS, fluorescence polarization; inhibition, % at 35 µM; Eukaryotic translation initiation factor 4H (Homo sapiens), Q15056; eIF4H fluorescence polarization binding assay; 290,000 compounds, 0.94% hits; AID 2012, 2009;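 active = 50% or more with normal probe brightness, or confirmed in later tests; inconclusive = above 50% with abnormal brightness, or retests that disagree; inactive = below 50% or failed in later tests; about a fifth of its hits are not listed in these tables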;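 also: calls also rest on retests at 20 µM and on dose response follow-up; 0% = protein and probe with vehicle and 100% = probe without protein; strong numbers were not always called active; many hits fall short of the cut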
CSC inhib – cancer stem cell viability inhibitors, primary screen, luminescence; cancer stem cell-like cells viability; inhibition, % at 7.5 µM; 300,000 compounds, 1.1% hits;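 active = mean at 75% or more and at least half the replicates too; inconclusive = mean and replicates disagree; tested in HMLE shEcad cells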;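 also: 0% = median of negative and 100% = median of positive control wells; the first replicate is given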
Rce1 inhib – yeast Rce1p protease inhibitors, primary screen, biochemical, fluorescence, cell-free homogeneous; AID 2563, 2010; 290,000 compounds, 0.27% hits; yeast membranes, quenched prenylated peptide cleavage fluorescence; calls only; CAAX prenyl protease 2 (Saccharomyces cerevisiae (strain ATCC 204508 / S288c)), Q03530;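 active = fall in fluorescence gain of 50% or more versus controls, with final raw signal at or below 3038400; inconclusive = same 50% fall but final raw signal above 3038400; inactive = fall in fluorescence gain under 50%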;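 also: plate controls were neutral control wells for no effect and wells lacking membranes for full effect; tested at 10 µM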
Target sequence (Q03530 whole entry, looked up): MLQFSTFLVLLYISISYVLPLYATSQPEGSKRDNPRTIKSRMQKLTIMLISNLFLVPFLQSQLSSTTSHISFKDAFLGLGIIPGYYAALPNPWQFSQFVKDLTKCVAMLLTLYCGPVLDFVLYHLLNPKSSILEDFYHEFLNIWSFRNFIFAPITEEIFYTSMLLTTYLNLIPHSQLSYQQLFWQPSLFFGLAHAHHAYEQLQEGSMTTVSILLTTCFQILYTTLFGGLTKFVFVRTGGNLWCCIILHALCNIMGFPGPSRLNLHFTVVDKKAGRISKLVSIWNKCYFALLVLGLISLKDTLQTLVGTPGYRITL
PABP FP inh – PABP poly(A) RNA binding inhibitors, primary screen, biochemical, fluorescence polarization, uHTS; Polyadenylate-binding protein 1 (Homo sapiens), P11940; inhibition, % at 35 µM; 290,000 compounds, 1% hits; AID 2014, 2009;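 active = 50% or more with normal probe brightness, or confirmed in later tests; inconclusive = above 50% with abnormal brightness, or retests that disagree; inactive = below 50% or failed in later tests; about a fifth of its hits are not listed in these tables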;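 also: calls also rest on retests at 20 µM and on dose response follow-up; controls were probe without protein and protein plus probe with vehicle; some compounds called inactive have numbers as strong as hits; many hits fall short of the cut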
MT1-MMP act inh – blockers of MT1-MMP proenzyme processing, primary screen, HT1080 RFP-PRO-GFP cells, GFP/RFP fluorescence | Matrix metalloproteinase-14 (Homo sapiens), P50281 | GFP/RFP ratio fluorescence, overnight; percent of plate control window, DMSO zero | GFP/RFP ratio change, % at 20 µM | 360,000 compounds, 0.061% hits;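 active = GFP/RFP ratio change of at least 30% with cell ATP level not reduced by more than half and red fluorescence within 50% of control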; also: strong numbers were not always called active
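Test system: HT1080 RFP-PRO-GFP cells; Benchmarks: DMSO and RFP-L50D-GFP cell wells; Timing: cells overnight before dosing, compound overnight, 37 °C, 5% CO2; Compound: one 20 µM compound dose with 1% DMSO; Read-out: GFP/RFP fluorescence ratio.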
MT1-MMP act inh RFP – further read-out of MT1-MMP act inh, marked with its call; RFP signal change, %; measured here: RFP expression control read;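 0 = vehicle wells; hits needed this value within 50% of zero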
* = called active by the depositor; i = inactive; ? = inconclusive; . = no result given.

SMILES	HIV Env fusion	UUG fidelity	eIF4H inh	CSC inhib	Rce1 inhib	PABP FP inh	MT1-MMP act inh	MT1-MMP act inh RFP
COc1ccc(Cl)cc1-c1cc(C(=O)Nc2ccc(C)c(NS(C)(=O)=O)c2)[nH]n1	15.6	4.1	.	.	.	.	-2.2	-20.0
COc1ccc(NS(=O)(=O)c2ccc3[nH]c(=O)[nH]c3c2)cc1	-2.7	-1.3	7.1	-8.9	i	8.9	-0.5	-2.9
Cc1cccc(NC(=O)c2ccc3nc(N4CCOCC4)sc3c2)c1C	11.5	-20.4	3.9	-5.4	i	-9.8	2.5	-2.1
O=C(CN1C(=O)c2ccccc2S1(=O)=O)Nc1ccccn1	-2.5	-17.4	.	-4.9	i	.	1.4	2.0
O=C(c1ccc2c(c1)N(Cc1ccccc1F)C(=O)c1ccccc1S2)N1CCOCC1	13.9	.	-7.1	-11.3	i	1.4	.	.
COc1ccc(NC(C)=O)cc1S(=O)(=O)NC(Cc1ccccc1)C(=O)NC(C)c1ccccn1 (centres undefined)	9.1	-8.1	.	.	.	.	-1.1	2.6
COc1ccc(C2CC(c3cc(Br)ccc3F)n3nnnc3N2)cc1 (centres undefined)	.	1.7	-9.6	38.8	i	0.8	3.4	-2.7
O=C(Nc1nsc(-c2ccccc2)n1)c1ccc(F)cc1	-57.0	-1.7	4.2	-1.7	i	6.7	0.2	-5.9
CCNC(=O)CSc1nnc(-c2cccc(S(=O)(=O)N(CC)CC)c2)n1CCc1ccccc1	-74.6	7.4	0.4	-3.9	i	2.2	1.6	-2.8
Cc1ccc(S(=O)(=O)N(C)CC(=O)O/N=C(\N)c2cccc([N+](=O)[O-])c2)cc1	-18.7	-15.3	6.1	-3.0	i	5.1	0.6	4.7
O=C(O)c1cccc(NC(=O)c2ccc(S(=O)(=O)c3ccccc3)cc2)c1	10.6	.	-3.1	-11.5	i	1.4	0.7	6.0
CC(C)C1N(c2ccccc2)C(N)=C(C#N)C1(C#N)C#N (centres undefined)	.	-11.3	-3.6	0.1	i	-5.3	-2.3	-10.4
CN(C)CCn1c2c(c(SCC(=O)Nc3cccc4ccccc34)nc1=O)CCC2	10.1	-6.5	.	.	i	.	1.3	2.6
O=C(c1cccc(S(=O)(=O)N2CCN(c3ccc(F)cc3)CC2)c1)N1CCCCCCC1	7.4	-7.1	.	2.3	i	.	3.8	-5.2
CCOC(=O)N1CCN(C(=O)c2oc3ccc(S(=O)(=O)N4CCCCC4)cc3c2C)CC1	9.3	4.8	-16.2	-8.5	i	-5.0	-0.8	-5.0
O=[N+]([O-])c1ccccc1O[C@@H]1O[C@H](CO)[C@H](O)[C@H](O)[C@H]1O	-4.6	-9.6	-3.3	6.3	i	-2.6	1.4	3.6
COC(=O)c1ccccc1S(=O)(=O)NNC(=O)c1nn(C)c(=O)c2ccccc12	12.9	-20.1	.	-12.8	.	.	1.0	8.4
Cn1cc(CNC(=O)C2c3ccccc3Oc3ccccc32)cn1	.	.	1.7	-8.6	i	-0.3	6.0	4.8
Cc1cc(N)n(-c2ccc(Cl)cc2)n1	-28.4	.	-10.1	8.0	i	8.5	-4.0	-1.1
CCOC(=O)c1c(CSc2ccccc2)n(C)c2ccc(O)c(CN3CCOCC3)c12	?	-11.1	1.5	-2.1	i	8.9	-1.7	0.2
CC(=O)NCCc1ccc(C(=O)COC(=O)c2cccs2)cc1	-12.2	-81.3	.	.	.	.	7.1	2.9
CCc1ccc(OCC(=O)OCC(=O)NC2CCCC(C)C2C)cc1 (centres undefined)	-17.4	-7.9	.	-21.4	.	.	2.3	0.4
CCSc1nnc(NC(=O)NC(CC)(C(F)(F)F)C(F)(F)F)s1	.	-16.6	-11.8	98.8*	i	-5.0	-10.3	-15.3
Cc1cc(=O)oc2c1c(C)nn2-c1ccc(Br)cc1	14.0	.	-3.3	-5.5	.	-6.9	-1.3	-5.3
O=C1CC(c2ccccc2)=NN1c1ccccc1	-17.6	-10.6	.	.	.	.	10.9	-18.5
Cc1cc(=O)oc2cc(OCC(=O)N3CCN(c4ccccc4)CC3)ccc12	1.3	-5.1	.	-12.8	.	.	0.2	0.2
COc1ccc(CN2CCN(c3cc(C)nc4c5c(C)cc(C)nc5nn34)CC2)cc1F	-56.8	-18.0	-10.4	2.5	i	-13.4	14.4	2.9
CCSC(=S)c1c(C)[nH]n(-c2ccccc2)c1=O	4.1	-18.2	-9.7	27.2	i	1.8	4.7	-9.3
CCOC(=O)N1CCN(S(=O)(=O)c2c(C)nc3sccn3c2=O)CC1	-5.3	-16.8	-15.5	-11.6	i	5.2	-2.6	-1.2
Cc1cccc(NS(=O)(=O)c2cnc(Cl)c(Br)c2)n1	3.5	1.0	7.1	-5.4	i	1.9	1.7	3.1
O=C(Nc1ncccc1O)c1ccc(NS(=O)(=O)c2ccc3[nH]c(=O)[nH]c3c2)cc1	8.0	-12.3	.	.	.	.	24.6	9.4
CCN(CC)C(=O)C1CCCN(Cc2cccc(F)c2)C1 (centres undefined)	-107.2	-2.8	-3.1	-3.5	.	9.4	5.1	3.5
COc1ccc(S(=O)(=O)CCc2nnc(NC(C)=O)s2)cc1	0.7	.	4.9	.	i	-2.7	2.8	6.6
C=CCN(CC=C)CCOc1cc(C)ccc1[N+](=O)[O-]	7.5	.	3.5	4.3	.	44.0	3.8	0.0
CCC(C)[C@H](NC(=O)N1CC(=O)Nc2ccccc21)C(=O)Nc1ccccc1C (some centres undefined)	-27.7	-8.7	-11.1	-4.0	i	-1.4	-4.5	-5.8
CCCN(C(=O)C(=O)Nc1ccc2nc3n(c(=O)c2c1)CCCCC3)c1ccc(OCC)cc1	5.2	-19.1	2.8	-17.8	i	-1.7	3.2	-7.0

An excerpt from above in order of SMILES length, rising:
SMILES	HIV Env fusion	UUG fidelity	eIF4H inh	CSC inhib	Rce1 inhib	PABP FP inh	MT1-MMP act inh	MT1-MMP act inh RFP
Cc1cc(N)n(-c2ccc(Cl)cc2)n1	-28.4	.	-10.1	8.0	i	8.5	-4.0	-1.1
Cc1cc(=O)oc2c1c(C)nn2-c1ccc(Br)cc1	14.0	.	-3.3	-5.5	.	-6.9	-1.3	-5.3
O=C(Nc1nsc(-c2ccccc2)n1)c1ccc(F)cc1	-57.0	-1.7	4.2	-1.7	i	6.7	0.2	-5.9
Cn1cc(CNC(=O)C2c3ccccc3Oc3ccccc32)cn1	.	.	1.7	-8.6	i	-0.3	6.0	4.8
O=C(CN1C(=O)c2ccccc2S1(=O)=O)Nc1ccccn1	-2.5	-17.4	.	-4.9	i	.	1.4	2.0
COc1ccc(S(=O)(=O)CCc2nnc(NC(C)=O)s2)cc1	0.7	.	4.9	.	i	-2.7	2.8	6.6
COc1ccc(C2CC(c3cc(Br)ccc3F)n3nnnc3N2)cc1 (centres undefined)	.	1.7	-9.6	38.8	i	0.8	3.4	-2.7
CCSc1nnc(NC(=O)NC(CC)(C(F)(F)F)C(F)(F)F)s1	.	-16.6	-11.8	98.8*	i	-5.0	-10.3	-15.3
CCOC(=O)N1CCN(S(=O)(=O)c2c(C)nc3sccn3c2=O)CC1	-5.3	-16.8	-15.5	-11.6	i	5.2	-2.6	-1.2
O=C(O)c1cccc(NC(=O)c2ccc(S(=O)(=O)c3ccccc3)cc2)c1	10.6	.	-3.1	-11.5	i	1.4	0.7	6.0
COC(=O)c1ccccc1S(=O)(=O)NNC(=O)c1nn(C)c(=O)c2ccccc12	12.9	-20.1	.	-12.8	.	.	1.0	8.4
CCNC(=O)CSc1nnc(-c2cccc(S(=O)(=O)N(CC)CC)c2)n1CCc1ccccc1	-74.6	7.4	0.4	-3.9	i	2.2	1.6	-2.8
CCCN(C(=O)C(=O)Nc1ccc2nc3n(c(=O)c2c1)CCCCC3)c1ccc(OCC)cc1	5.2	-19.1	2.8	-17.8	i	-1.7	3.2	-7.0
O=C(Nc1ncccc1O)c1ccc(NS(=O)(=O)c2ccc3[nH]c(=O)[nH]c3c2)cc1	8.0	-12.3	.	.	.	.	24.6	9.4
Cc1ccc(S(=O)(=O)N(C)CC(=O)O/N=C(\N)c2cccc([N+](=O)[O-])c2)cc1	-18.7	-15.3	6.1	-3.0	i	5.1	0.6	4.7
